LANA-H2B inh – blockers of LANA interaction with H2A/H2B – biochemical, FP readout, HTS, primary screen | Protein LANA1 (Human herpesvirus 8 type P (isolate GK18)), Q9QR71 | cell-free LANA-H2A/H2B peptide, fluorescence polarization | inhibition, % (concentration not given with the values) | hit rate 0.6% among 320,000 | AID 2629, 2010; in the data active = inhibition mostly above about 10%, no sharp cut-off; inactive = mostly below about 6.7%;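 also: stock transfer was 7.5 nL into about 10 µL; 0% = median of vehicle wells and 100% = median of positive control wells; one replicate is shown; the record names a cut of 25% in any replicate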
RanGTP-Imp inh – inhibitors of RanGTP-importin-beta interaction, primary screen, biochemical, FRET, CFP-Ran, YFP-importin-beta, homogeneous; cell-free CFP-Ran/YFP-importin-beta FRET ratio; inhibition, % (test concentration not listed); hit rate 1.1% among 300,000; AID 2216, 2009;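 active = most replicates above 15%; inconclusive = exactly half above 15%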;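 also: 0% = DMSO wells and 100% = Ran loaded with GDP instead of GTP; wells of about 40 µL received 100 nL stock; the first replicate is given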
Calb FLC – C. albicans growth inhibition with fluconazole, primary screen, CaCi-2 strain, Alamar Blue fluorescence | C. albicans CaCi-2 (fluconazole-resistant clinical isolate) + fluconazole, 48 h | growth inhibition, % (concentration not given with the values) | hit rate 0.57% among 300,000 | AID 1979, 2009;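 active = most replicates above 75%; inconclusive = exactly half above 75%; inactive = most below 75%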;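 also: all wells also contain fluconazole at 8 µg/ml as a sub-toxic cotreatment; 0% = median of DMSO wells and 100% = median of geldanamycin control wells; wells of about 8 µL received 7.5 nL stock; the first replicate is given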
ALR H2O2 inh – inhibitors of human ALR sulfhydryl oxidase, primary screen, biochemical, H2O2 detection, HRP-luminol luminescence, single point | purified ALR, DTT oxidation | inhibition, % (test concentration not listed) | hit rate 3.8% among 290,000;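 active = mean and each replicate at 75% or more; inconclusive = only one of the two met; inactive = neither met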;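 also: stock transfer was 7.5 nL into about 7.5 µL; 0% = neutral wells and 100% = wells with inactivated enzyme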
Target sequence (P55789 whole entry, looked up): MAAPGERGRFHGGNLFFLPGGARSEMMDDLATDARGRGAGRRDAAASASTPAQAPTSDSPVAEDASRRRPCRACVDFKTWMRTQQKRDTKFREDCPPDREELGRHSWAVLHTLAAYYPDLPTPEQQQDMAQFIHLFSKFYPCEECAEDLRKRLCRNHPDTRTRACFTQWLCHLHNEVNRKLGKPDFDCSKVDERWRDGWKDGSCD
B2AR ag – beta2AR agonists driving receptor internalization, primary screen, cell-based, FAP fluorogen, flow cytometry; AID 504454, 2011; Am2.2-beta2AR cells; reference of the scale not given here; response, % (test concentration not listed); hit rate 0.43% among 340,000; Beta-2 adrenergic receptor (Homo sapiens), P07550;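 active = response above a set limit, near 3 SD of response in nonfluorescent compounds, cut at about 42% in these data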;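 also: stock transfer was 100 nL into about 11 µL; a reference agonist was the positive control; negative values mostly stem from fluorescent compounds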
HNF4A DNA FP – change in binding of human HNF4A to DNA, primary screen, biochemical, fluorescence polarization, FITC-DNA. activity change, % at 10 µM. hit rate 0.3% among 360,000. AID 1224865, 2016. Hepatocyte nuclear factor 4-alpha (Homo sapiens), P41235. 1 h; in the data active = activity change above about 30%, passing the limit was not always enough;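 also: controls were the assay level and a saturating level of protein; the project sought stronger binding though the title names inhibitors; some compounds called inactive have numbers as strong as hits; positive values seem to mean higher polarization but the record does not say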
Target sequence (P41235 whole entry, looked up): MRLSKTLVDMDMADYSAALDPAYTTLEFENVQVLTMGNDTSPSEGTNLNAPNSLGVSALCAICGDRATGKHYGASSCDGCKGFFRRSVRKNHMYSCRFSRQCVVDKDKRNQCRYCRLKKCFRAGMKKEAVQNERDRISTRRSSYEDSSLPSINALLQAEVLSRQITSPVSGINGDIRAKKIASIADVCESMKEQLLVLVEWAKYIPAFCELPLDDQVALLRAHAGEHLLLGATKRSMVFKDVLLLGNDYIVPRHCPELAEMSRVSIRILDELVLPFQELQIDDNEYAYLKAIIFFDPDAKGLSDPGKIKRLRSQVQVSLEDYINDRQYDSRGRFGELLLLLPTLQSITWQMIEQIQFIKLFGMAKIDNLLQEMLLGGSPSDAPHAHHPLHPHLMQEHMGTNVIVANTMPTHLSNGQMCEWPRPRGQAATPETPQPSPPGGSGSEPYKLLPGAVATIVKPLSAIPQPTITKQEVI
Vif TR-FRET – inhibitors of Vif binding to APOBEC3G peptide, primary screen, biochemical, TR-FRET, GST-Vif 1-94, biotin-A3G peptide, dose response retest (AID 1117319); inhibition, %; hits with a dose series show IC50 in µM; TR-FRET GST-Vif / biotin-A3G peptide binding; higher % means a stronger effect; test concentration not given here; strong numbers were not always called active; hit rate 0.57% among 260,000;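 active = above the screen mean plus three standard deviations and confirmed in dose response; inconclusive = results disagree or hit not tested in dose response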;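 also: Vif residues 1-94 fused to GST binding biotinylated APOBEC3G peptide 110-148; 0% = full assay without inhibitor and 100% = GST in place of GST-Vif; retest series ran down from 100 µM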
The depositor's hits bear a star; i = inactive; ? = inconclusive; . = not tested or not shown; & = joins results of further samples.

SMILES	LANA-H2B inh	RanGTP-Imp inh	Calb FLC	ALR H2O2 inh	B2AR ag	HNF4A DNA FP	Vif TR-FRET
COc1ccccc1NC(=O)NCc1ccc(C)n1C	3.5	-4.8	-7	-4	-2	0.8	0%
CC1(/[N+]([O-])=C/c2ccc(F)cc2)CCCCC1=O (stereo not given)	-4.0	3.7	-6	.	-5	-3.8	19%
Cc1ccc(-c2cc(C(=O)NC3CCCCC3)no2)cc1	-16	3.4	0	-2	3	-0.7	.
Cc1ccc2nc(NC(=O)CS(=O)(=O)Cc3ccccc3)sc2c1	6.8	2.0	-3	.	0	-1.3	2%
COC(=O)c1cnn2c(C)c(Cc3cccc(F)c3)c(C)nc12	.	6.1	-6	.	4	3.1	69%
COc1ccccc1N(Cc1cc2cccc(C)c2[nH]c1=O)C(=O)C(C)C	1.0	3.1	17	-6	3	3.1	.
CCCNCc1cc(Cl)c(OCC)c(Cl)c1	-3.0	-0.6	-21	-1	-5	-3.7	4%
CCC(=O)N1CCN(c2ccccc2NC(=O)c2cccc(C)c2)CC1	-7.1	-0.3	?	-3	-4	0.0	80%
O=c1[nH][nH]c(C(F)(F)F)c1C=Nc1ccccc1Cl	4.5	-3.2	-12	.	-3	-0.7	5%
Cc1cc(C(=O)CSc2nnc(-c3cccnc3)n2-c2ccccc2)c(C)n1CC1CCCO1 (stereo not given)	1.5	-2.5	-24	-88	-4	-1.9	17%
CCC(C)NC(=O)C1CC(c2ccc(OC)cc2)=NO1 (stereo not given)	-2.6	2.9	10	-4	-17	-1.5	5%
CC1CCC(NC(=O)C2(C)CCC(=O)N2Cc2cccnc2)CC1 (stereo not given)	2.2	-2.4	-5	.	1	-2.4	1%
N=c1n(CCCOc2ccc(F)cc2)c2ccccc2n1CC(N)=O	-5.4	1.7	1	-8	-2	-0.3	19%
COCCNC(=O)c1ccccc1NS(=O)(=O)c1ccc(C)c([N+](=O)[O-])c1	-1.6	2.1	2	-1	3	2.4	4%
CCOc1ccc(OCC)c(NC(=O)CC2Oc3ccccc3NC2=O)c1 (stereo not given)	-2.8	3.5	-1	-95	3	7.4	28%
CC1=CC2CC1C1C(=O)N(c3ccc(S(=O)(=O)Nc4nc(C)cc(C)n4)cc3)C(=O)C21 (stereo not given)	4.2	-0.7	-11	2	-2	-3.0	3%
C/C(Nc1ccccc1C(F)(F)F)=C1/CCOC1=O	2.4	1.9	-11	-2	5	5.6	-6%
COC(=O)c1sccc1NC(=O)c1c(Cl)cccc1Cl	1.6	-0.6	8	1	3	1.3	.
CC1(C(=O)N2CCOCC2)CCCCC1	2.9	-3.1	-6	-5	-2	2.7	0%
O=C(NCCc1ccccc1)C1CCN(S(=O)(=O)c2cccc3nonc23)CC1	7.1	0.3	-1	.	-6	2.0	-1%
Cc1cccc(Oc2sc(C(=O)c3ccccc3)c(N)c2C#N)c1	.	1.6	1	.	8	2.7	0%
Cc1ccc(NC(=O)NN2CCOCC2)cc1	5.0	-1.1	3	-4	1	-1.3	-14%
CC(C)C(C)NC(=O)COc1nc2ccccc2nc1N(C)C1CCCCC1 (stereo not given)	-0.8	1.9	6	.	6	3.8	-30%
COc1ccc(S(=O)(=O)Nc2ccc(F)c(Cl)c2)cc1OC	-4.9	1.0	0	.	3	0.0	18%
CCCN=C(Nc1ccc(Cl)cc1)c1cccnc1	1.3	2.0	0	-5	9	4.9	-4%
O=C(O)C1C2C=CC(O2)C1C(=O)Nc1ccccn1 (stereo not given)	.	.	.	.	-8	-6.9	-2%
COc1nc(N)nc(N2CCOCC2)n1	-5.2	-2.2	-3	-11	-10	0.2	1%
Cc1ccc(C(CC(=O)NCc2ccco2)c2ccc(OC(C)C)cc2)cc1 (stereo not given)	0.6	5.2	-8	3	2	-1.1	-8%
Fc1ccccc1COc1ccc(/C=N/n2cnnc2)cc1	0.5	?	2	-36	10	4.7	?
CCCCOc1ccc(Cl)cc1CSc1nnc(CC)n1N	-7.9	-1.3	-9	-7	-5	-1.2	5%
O=C(NC(=O)c1ccncc1)NC(c1ccccc1)c1ccccc1	4.1	1.8	13	-4	2	-3.9	?
Cc1c(OCC(=O)NCc2ccccn2)ccc2c3c(c(=O)oc12)CCCC3	1.0	1.6	-5	-3	1	0.2	.
O=C(O)Cn1c(=O)n(Cc2ccccc2)c2ccccc21	-5.9	4.7	13	25	-2	1.6	.
O=C(c1ccc(NS(=O)(=O)c2cccc3cccnc23)cc1)N1CCOCC1	2.2	2.1	-12	.	0	-4.1	.
O=C(O)C1=NN(c2ccccc2)C(=O)CC1	0.1	-0.2	-8	-4	-2	1.3	.
CCCN(Cc1ccc(C)cc1)C(=O)c1ccc(CNS(=O)(=O)c2ccc(C(C)=O)cc2)cc1	i	.	.	-5	1	-0.3	-4%
CCN(CC)C(=O)C(=O)N/N=C/c1ccc(C(=O)OC)cc1	-1.4	0.7	7	-1	-2	4.9	-8%
Cc1ccc(-c2nnc(Nc3cccc(O)c3)c3ccccc23)cc1S(=O)(=O)NCCO	-1.6	-3.0	1	64	15	3.4	.
O=c1c2[nH]c3ccccc3c2ncn1Cc1ccccn1	1.9	1.5	-16	-2	-10	0.2	-4%
O=C1CSC(=S)N1c1cccc(Br)c1	0.2	-1.8	-16	-23	15	3.7	2%
CCN1CCN(CCCNC(=O)c2ccc3c(Cl)c4c(nc3c2)CCCC4)CC1	-2.4	-1.4	9	68	9	0.5	.
O=C(N(c1ccccc1)c1ccccc1)n1ccnc1	-5.1	0.1	12	-8	-11	2.8	19%
Cc1nc(N)sc1N=Nc1ccc(F)cc1	-7.5	-2.7	16	98*	17	-0.7	7%
COc1cccc2cc(C(=O)N3CCN(C(=O)c4ccco4)CC3)c(=O)oc12	-2.0	-4.9	25	-6	1	3.0	6%
COc1cc(NC(=O)c2cccc(Br)c2)nc(OC)n1	-0.5	7.6	-7	7	-6	-0.9	1%
CC(=O)OCC(=O)[C@H]1CC[C@H]2[C@@H]3CCC4=CC(=O)CC[C@]4(C)[C@H]3CC[C@]12C	2.7&7.1	3.9	.	.	-10	1.0	2%
CC1CC(=S)Nc2ccccc2N1Cc1ccccc1 (stereo not given)	0.5	1.4	-22	99*	8	1.2	-1%
CC1CCCC(C)N1/N=C/c1ccccc1OC(F)F (stereo not given)	-1.8	2.5	-5	20	-4	-1.2	-5%
Cc1cccc(OCCCCc2c(C)n[nH]c2C)c1	2.4	?	4	-14	22	0.1	18%
CC(C(=O)N1CCc2ccccc2C1)N1C(=O)c2ccccc2C1=O (stereo not given)	1.3	-2.2	-7	1	1	4.4	-6%
COCCNC(=O)C(OC(=O)CC1Sc2ccccc2NC1=O)c1ccncc1 (stereo not given)	-2.1	6.6	-11	-1	0	1.7	?
O=C(CN1CCN(S(=O)(=O)c2ccc(Br)cc2)CC1)c1ccc(O)c(O)c1	6.4	-2.1	5	96*	-1	0.4	23%
O=C(CCc1c[nH]c2ccccc12)OCC(=O)N1CCN(S(=O)(=O)c2ccccc2)CC1	2.6	0.8	-2	-1	-1	3.6	-4%
CN=C1SC(CC(=O)Nc2sc3c(c2C#N)CCCC3)C(=O)N1C (stereo not given)	-5.1	-4.1	3	10	-7	-0.4	?
Cc1noc(C)c1CSCC(=O)N(C)CC(=O)Nc1ccccc1C(F)(F)F	3.9	.	.	8	-2	0.2	8%
CC[N+](C)(CC)CCOC(=O)C1c2ccccc2Oc2ccccc21	-0.9	.	.	-15	-2	-1.6	.
COc1ccc(N2CCN(c3ccc([N+](=O)[O-])cc3Cl)CC2)cc1	-3.7	-1.2	5	.	-1	-0.1	-2%
COc1ccc(CCNC(=O)C2CCCCC2C(=O)O)cc1OC (stereo not given)	1.2	.	.	-4	.	.	-2%
CC(=O)N1N=C(c2ccncc2)CC1c1ccccc1O (stereo not given)	4.4	-0.9	1	3	-2	-1.0	-1%
CC(=O)Nc1ccc(NC(=O)c2ccccc2N(Cc2ccccc2)S(C)(=O)=O)cc1	2.7	-4.4	-8	-14	-2	0.4	-6%
The list goes on:
SMILES	LANA-H2B inh	RanGTP-Imp inh	Calb FLC	ALR H2O2 inh	B2AR ag	HNF4A DNA FP	Vif TR-FRET
O=C(C[n+]1cc[nH]c1)c1ccc(Cl)cc1	0.2	-1.8	-42	7	-23	-1.6	.
CCOC(=O)c1c(-c2ccc(C)o2)csc1NC(=S)NC(=O)c1ccc(F)cc1	-1.8	1.4	6	14	14	3.0	5%
CCCCNC(=O)C1CCCN(S(=O)(=O)c2c(C)noc2/C=C/c2cccs2)C1 (stereo not given)	-1.5	3.5	4	-15	-10	1.5	1%
CCOC(=O)CSc1nc2ccccc2c(=O)n1CCN1CCOCC1	-3.5	-5.6	-1	-6	-1	-0.2	11%
CCC(C)(C)n1nnnc1C(c1cc2cc(OC)ccc2[nH]c1=O)N1CCc2ccccc21 (stereo not given)	3.5	5.3	15	.	14	3.8	-1%&4%
CCc1ccc(NC(=O)C(=O)N/N=C(\C)CC(=O)NCc2ccc(Cl)cc2)cc1	3.8	1.8	-1	-4	-2	3.7	20%
O=C(CCC1CCCCC1)Nc1ncn[nH]1	1.9	-3.5	-70	-12	-4	2.2	-1%
Cc1cc(C)c2oc(C(=O)Nc3ccc(S(=O)(=O)Nc4nccs4)cc3)cc(=O)c2c1	1.0	6.6	6	-4	3	0.3	2%
Cn1c(SCc2ccc(Br)cc2)nnc1-c1ccccn1	-2.5	11	8	0	1	-1.1	-7%
O=C(Nc1nc(-c2cccnc2)cs1)c1ccccc1F	4.9	7.2	-2	1	1	4.7	8%
COC(=O)c1ccccc1NC(=O)CSc1nc(-c2ccco2)cc(C(F)(F)F)n1	.	.	.	.	3	3.4	19%
CCCNS(=O)(=O)c1cc(CN2C(=O)c3cccnc3C2=O)ccc1OC	-1.4	0.6	-5	-7	4	-0.1	-4%
CCCn1c(C(CO)Nc2nc(C)cs2)nc2ccccc21 (stereo not given)	-3.1	4.8	-8	.	1	-2.2	.
Cn1c(N2CCOCC2)nc(-c2ccccc2)c1-c1ccccc1	-1.5	-5.2	5	99*	-9	2.7	7%
Cc1c2cnn(CC(=O)O)c(=O)c2c(C)n1Cc1ccccc1	-2.9	2.4	-5	-8	-7	-1.1	6%
COc1ccc(C(=O)N=C2SC3CS(=O)(=O)CC3N2c2ccccc2)cc1OC (stereo not given)	-0.8	4.1	2	-9	1	-4.1	-14%
CCN(CC)C(=O)CN1C(=O)c2cccc3cccc1c23	3.0	1.5	11	-39	-7	0.3	6%
CCCCNC(=S)NNC(=O)C1=NN(c2cc(C)ccc2C)C(=O)CC1	-2.7	1.1	-11	-1	4	-2.6	-5%
CC1Cc2ccccc2N1C(=S)Nc1ccc(S(N)(=O)=O)cc1 (stereo not given)	-4.0	-2.4	-1	13	.	9.1	.
COc1ccccc1CN(C)CC(=O)NC1CCCc2ccccc21 (stereo not given)	-0.2	-1.4	-13	-18	-4	0.3	-2%
COCCC(=O)N1CCC(Oc2ccc(C(=O)NCCc3ccccn3)cc2)CC1	2.1	0.3	2	0	-1	-1.1	.
CCCCCN1N=C(C)CC1=O	3.8	?	12	1	-3	7.4	.

Compounds as they come; overall some 6.3% were active at least once.
